NPYLR7 agonist: activates Aedes aegypti NPYLR7 receptor | HEK293T NPYLR7/Galpha15, GCaMP6s calcium fluorescence | activation, % at 10 µM | actives 0.15% (n = 270,000) | AID 1259423; in the data active means activation above about 40%;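 further: 0% = vehicle and 100% = reference agonist at the receptor; some compounds past the cut are filed as inactive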
NPYLR7 agonist max-min: recorded beside NPYLR7 agonist, whose call it bears; activation, %; measured here: Max-Min RFU normalised activation; some inactives read as strong as hits;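 span of the calcium signal over five minutes; 0% = vehicle and 100% = native peptide agonist; compound fluorescence can raise it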
* = called active by the depositor; & = joins results of further samples.

SMILES	NPYLR7 agonist	NPYLR7 agonist max-min
Cc1ccccc1C1CCN(CCn2cc(-c3cccc(O)c3)nn2)C1 (stereo unspecified)	-3&-1	-2&-5
CCN1CC(CN(C)C(=O)c2cnc3onc(C(C)C)c3c2)Oc2ccccc21 (stereo unspecified)	3	8
CC12CCC(C(=O)N3CCCCCC3)(OC1=O)C2(C)C (stereo unspecified)	5	3
C=CCC(NC(C)=O)C(=O)N1CCC2(CC1)Nc1ccccc1S(=O)(=O)N2 (stereo unspecified)	1	8
Cc1ccccc1CNC(=O)c1ccc(Nc2cccc(C(F)(F)F)c2)nc1	-14	-20
COc1ccccc1CN(C)[C@H]1[C@H](Oc2ccccn2)C[C@@H]2CC(C)(C)OC[C@]21O	5	15
COCCCN(CC(=O)N(CCc1ccc(OC)c(OC)c1)Cc1sccc1C)C(=O)c1cccc([N+](=O)[O-])c1	10	11
Cc1nn(C)c(C)c1C(=O)N1CCN(S(=O)(=O)c2ccc(Br)cc2Cl)CC1	6	3
Fc1ccc(-n2c(-c3ccncc3)nn(CN3CCCCC3)c2=S)cc1	-2	5
C=CCCC(O)CN(Cc1ccc(F)cc1)Cc1ccc(C)cc1C (stereo unspecified)	31	37
COc1ccccc1OCC1c2ccsc2CCN1C(=O)CN(CCC(C)C)S(=O)(=O)c1ccc(C)cc1 (stereo unspecified)	-1	3
CC1(C(=O)NCCc2ccccn2)CCN1C1Cc2ccccc2C1 (stereo unspecified)	-3	-3
O=C1CC(N2CCN(c3ncccn3)CC2)C(=O)N1c1ccc(Br)cc1 (stereo unspecified)	1	-1
COc1ccccc1NC(=O)N(Cc1cc(Cl)ccc1OS(C)(=O)=O)CC1CCCO1 (stereo unspecified)	-1	13
CN(Cc1ccc(Cl)c(Cl)c1)C(=O)CC(NC(N)=O)c1cccs1 (stereo unspecified)	-1	0
Cc1cccc(NC(=O)COc2coc(CN3CCc4ccccc43)cc2=O)c1C	12	9
C=CCNC(=O)CSc1nnc2n1CCN2c1ccccc1	1	0
Fc1ccc(COc2cn(-c3ccccc3)nn2)cc1	3	13
COc1ccc(CN(C)c2c(C)nc3c(OCc4ccc(Cl)cc4Cl)cccn23)cc1	2	-6
CCc1ccc(OCCN(C)C(=O)c2ccn[nH]2)cc1	2	-2
CC1(C)C[C@@H]2C[C@@](C)(CN2C(=O)CCc2nnc(-c3ccc4c(c3)OCO4)o2)C1	18	8
CC(C)CNC(=O)C1(C)CCN1C(=O)CCc1ccc(Cl)cc1Cl (stereo unspecified)	-6	0
Oc1ccc(CNc2ccccc2)cc1	11	3
O=c1c2c3c(sc2[nH]c(=S)n1CC1CCCO1)CCC3 (stereo unspecified)	-2	-3
Cc1ccc(CN2CCC2(C)C(=O)NC(C)C)cc1 (stereo unspecified)	3	0
(next part)
SMILES	NPYLR7 agonist	NPYLR7 agonist max-min
O=S(=O)(CC1CC1)c1ncc(CN2CCCCO2)n1CC1CCCO1 (stereo unspecified)	9	1
Cc1ccccc1-n1ncc2c(C3CC3)nn(CC(=O)Nc3ccccc3F)c(=O)c21	7	3
CCc1cc(=O)[nH]c(-c2ccc(NCC3CCN(c4ccc(F)cc4)C3)nc2)n1 (stereo unspecified)	8	3
Cc1cc(NC(=O)C2(C)CCCN(C)C2)c2ccccc2n1 (stereo unspecified)	0	0
CCOc1cc(S(=O)(=O)N2CCC(C(N)=O)CC2)c(OCC)cc1C	2	1
CCOc1ccc(NC(=O)CSc2nc3ccc(OCC)cc3s2)cc1	-3	-8
Cc1cc(C)c2sc(N(CCCN(C)C)C(=O)c3ccc(C#N)cc3)nc2c1	3	1
Cc1cc(C)c2[nH]c(C(=O)N3CCOC(c4ccc(F)cc4)C3)c(C)c2c1 (stereo unspecified)	0	-2
CCOC(=O)c1cc(-c2cccc(NC(=O)Cc3ccc(OC)cc3)c2)n(-c2cccc(C)c2)n1	22	10
CNC(=O)c1sc(Nc2cc(C)ccc2C)nc1C	4	1
CCc1nc(C)c(C(=O)NC(C)c2cnc(-c3ccncc3)nc2C)o1 (stereo unspecified)	7	5
COCCOc1nc(-c2ccc(C)cc2)n(-c2cccc(NC(=O)Nc3ccccc3C)c2)n1	-4	0
O=C(CCc1ccccc1)N1CCN(Cc2cc(=O)c(OCc3ccc(F)cc3)co2)CC1	0	-6
COc1ccc(NC(=O)CN2C(=O)C3CCCCN3C(=O)c3ccccc32)cn1 (stereo unspecified)	27	32
CC(OC(=O)C1CSCCS1)C(N)=O (stereo unspecified)	1	8
CC1C(=O)N(c2ccc(Oc3ccccc3)cc2)CCN1C(=O)c1ccc(Cl)cc1Cl (stereo unspecified)	4	9
Cc1ccccc1-c1nnc2ccc(-c3cccc(C(=O)N(C)C)c3)cn12	-2	-11
COCCCNc1nc2nonc2nc1NC1Cc2ccccc2C1	1&0	-1&-2
CCOC(=O)CCC(=O)Nc1cc(C(C)(C)C)nn1-c1ccc(Br)cc1	-7	5
O=S(=O)(N1CCCCC1)N1CCOC(Cc2ccccc2Cl)C1 (stereo unspecified)	8	6
COc1ccccc1CNC(=O)CSc1nc(=O)n(CCO)c2c1CCCC2	-7	-11
CCOC(=O)N1CCN(CC(=O)N2N=C(c3cc(C)ccc3C)CC2c2ccccc2C)CC1 (stereo unspecified)	0	9
CCCC(=O)N1CCC1(C)C(=O)NS(=O)(=O)c1sc2ccc(Cl)cc2c1C (stereo unspecified)	4	5
COCc1nc(-c2cccc(CN3CCN(C(=O)C(C)Oc4ccccc4)CC3)c2)no1 (stereo unspecified)	-3	-4
COCCCN(Cc1ccc(OC)c(OC)c1)CC(O)Cc1ccccc1 (stereo unspecified)	-3	3

Some of these compounds in order of molar mass, ascending.
SMILES	NPYLR7 agonist	NPYLR7 agonist max-min
CCc1nc(C)c(C(=O)NC(C)c2cnc(-c3ccncc3)nc2C)o1 (stereo unspecified)	7	5
CCOc1ccc(NC(=O)CSc2nc3ccc(OCC)cc3s2)cc1	-3	-8
CCOC(=O)CCC(=O)Nc1cc(C(C)(C)C)nn1-c1ccc(Br)cc1	-7	5
CCOC(=O)N1CCN(CC(=O)N2N=C(c3cc(C)ccc3C)CC2c2ccccc2C)CC1 (stereo unspecified)	0	9

Part of the list above, as labelled records.
canonical_smiles: O=C(CCc1ccccc1)N1CCN(Cc2cc(=O)c(OCc3ccc(F)cc3)co2)CC1
  NPYLR7 agonist: 0
  NPYLR7 agonist max-min: -6
canonical_smiles: CCOc1ccc(NC(=O)CSc2nc3ccc(OCC)cc3s2)cc1
  NPYLR7 agonist: -3
  NPYLR7 agonist max-min: -8

The list goes on:
SMILES	NPYLR7 agonist	NPYLR7 agonist max-min
CC(OC(=O)c1csc(S(N)(=O)=O)c1)C(=O)Nc1ccc(Cl)cc1F (stereo unspecified)	21	23
COCCC(C)NC(=O)c1ccccc1Nc1ccc(OC)cc1 (stereo unspecified)	1	0
CCOC(=O)c1nn(-c2ccccc2C)c(=O)cc1OS(=O)(=O)c1cc(C)c(C)cc1OC	5	3
CC(C)(C)C(=O)Nc1c(-c2ccc(F)c(F)c2)nc2ccccn12	-8	-2
O=C1C(=O)N(CCCN2CCOCC2)C(c2ccc([N+](=O)[O-])cc2)C1=C(O)c1ccc(F)cc1 (stereo unspecified)	11	15
O=C(CSc1nc2ccccc2[nH]1)c1ccc(OC(F)F)cc1	-6	-15
CC1COCCN1C(=O)c1cc(Cl)ccc1OC(F)F (stereo unspecified)	-4	42
Cc1cccc(OCCNC(=O)CN(C)Cc2ccccc2)c1	1	2
CCC1(C2CCN(C(=O)CSc3n[nH]c(N)n3)CC2)NC(=O)NC1=O (stereo unspecified)	10	6
C=CCN1CC(c2nc3ccccc3n2Cc2ccc3ccccc3c2)CC1=O (stereo unspecified)	1	7
Cc1oc(-c2ccco2)nc1CN1CC[C@H](O)[C@@H](O)C1	5	0
c1ccc2c(c1)nc1n2CCN1CCN1CCOCC1	-2	-3
O=C(NC(=O)c1ccccc1)C(=NO)C(=O)NC(=O)c1ccccc1	4	3
Cc1cnc2c(c1N1CCCCC1)c(=O)n(C)c(=O)n2C	1	-1
CCOc1ccc2oc(C)c(C(=O)NC(C)c3n[nH]c(C)n3)c2c1 (stereo unspecified)	-3	-3
Cc1ccc(S(=O)(=O)NCCC(=O)O)c(C)c1N(C)S(=O)(=O)c1ccccc1	-9	-15
Cc1ccc(-n2nnc3c(N4CCN(C(=O)C(C)(C)Oc5ccc(Cl)cc5)CC4)ncnc32)cc1	-3	-9
Cc1ccc(F)c(NC(=O)c2cccc(=O)n2CCOc2ccccc2Cl)c1	-8	480
C=CCn1c(SCC(=O)Nc2ccccc2OCC)nc2sc3c(c2c1=O)CCCC3	-3	-5
CC(C)NC1CCN(CC(C)(C)O)CC1	-2	-9
CCCC(=O)Nc1ccc(NC(=O)c2n[nH]c3c2CC(C)CC3)cc1OC (stereo unspecified)	2	0
CC(CNC(=O)N1CCC(O)(C(F)(F)F)C1)c1cccs1 (stereo unspecified)	6	5
COc1ccc2sc(N(Cc3cccnc3)C(=O)c3ccc4c(c3)OCCO4)nc2c1	-1	5
COc1ccc(-c2ccccc2NC(=O)C2CCCN2Cc2nccn2C)cc1 (stereo unspecified)	1	-1
CC(O)CN1C(=O)CSC1c1ccccc1F (stereo unspecified)	2	-2

Given as a markdown table: entries from further up
| canonical_smiles | NPYLR7 agonist | NPYLR7 agonist max-min |
| --- | --- | --- |
| CCCC(=O)Nc1ccc(NC(=O)c2n[nH]c3c2CC(C)CC3)cc1OC (stereo unspecified) | 2 | 0 |
| CC(CNC(=O)N1CCC(O)(C(F)(F)F)C1)c1cccs1 (stereo unspecified) | 6 | 5 |
| COc1ccc2sc(N(Cc3cccnc3)C(=O)c3ccc4c(c3)OCCO4)nc2c1 | -1 | 5 |

Laid out differently: results already given.
CC(C)NC1CCN(CC(C)(C)O)CC1
- NPYLR7 agonist = -2
- NPYLR7 agonist max-min = -9

CCCC(=O)Nc1ccc(NC(=O)c2n[nH]c3c2CC(C)CC3)cc1OC (stereo unspecified)
- NPYLR7 agonist = 2
- NPYLR7 agonist max-min = 0

CC(CNC(=O)N1CCC(O)(C(F)(F)F)C1)c1cccs1 (stereo unspecified)
- NPYLR7 agonist = 6
- NPYLR7 agonist max-min = 5

COc1ccc2sc(N(Cc3cccnc3)C(=O)c3ccc4c(c3)OCCO4)nc2c1
- NPYLR7 agonist = -1
- NPYLR7 agonist max-min = 5

More structures:
SMILES	NPYLR7 agonist	NPYLR7 agonist max-min
Cn1ccnc1C(NC(=O)COc1ccccc1F)c1cccc(F)c1 (stereo unspecified)	8	6
O=C(CCCn1cnnn1)N1CCC2(CCOCC2)CC1	10	4
Cc1ccc(-c2nc3c(NCc4ccc(N(C)C)cc4)nccc3[nH]2)cc1	-4	-6
Cc1[nH]c2ccccc2c1CC(=O)N1Cc2cnc(CC(C)C)nc2C1	0	-3
CCN(CC)c1ccc(C(=O)NC(=S)Nc2nc(-c3ccc(C#N)cc3)cs2)cc1	3	-4
Cc1ccc(OC2CCN(Cc3ccncc3)CC2)c(C(=O)N2CCCC(O)C2)c1 (stereo unspecified)	9	2
CCCSc1ncc(CNC(CC)c2ncnn2C)cn1 (stereo unspecified)	-1	-4
Cn1cc(CC2CCN(CC(C#N)CCC#N)C2)cn1 (stereo unspecified)	-6	-8
CCOc1ccc(C(=O)Nc2ccc3c(c2)oc2ccccc23)cc1[N+](=O)[O-]	-2	2
CCCS(=O)(=O)NCCNc1ccc(Nc2cccc(C)n2)nn1	19	11
NC(=O)C1CN(S(=O)(=O)c2ccccc2OC(F)(F)F)c2ccccc2O1 (stereo unspecified)	-4	-4
CN(c1ccc(CN)cc1)S(C)(=O)=O	1	1
Cc1ccn2c(=O)nc(SCC(=O)N3CCCC3)nc2c1	3	0
O=C1CCCCCN1CCC(=O)N1CCC(CO)(Cc2ccccc2)CC1	6	6
CCCN(CC(=O)Nc1cc(-c2ccccc2)nn1-c1ccc(Cl)cc1)C(=O)CCc1ccccc1	-4	-3
CN1CCC2(CCN(C(=O)/C=C/c3ccoc3)CC2)C1=O	6	7
CC1=NN(c2ccc(C(=O)NC3CCSc4ccccc43)cc2)CC1 (stereo unspecified)	6	3
Cc1ccc(C2(O)CCN(C(=O)c3ccc4sc(N)nc4c3)CC2)nc1	8	7
COc1ccc(CN(C(=O)Nc2c(Cl)cccc2Cl)C(C)C)cc1OS(C)(=O)=O	-3	-12
CCCn1c(=O)n(C)c(=O)c2c(SCC3CCCCO3)nc(CC(C)C)nc21 (stereo unspecified)	9	14
Cc1ccc(CNc2ccc(N(C)C)nc2)o1	12	7
CCCS(=O)(=O)NCc1nnnn1-c1ccc(C)cc1	6	2
CCn1nnc2c(=O)n(CC(=O)N3CCN(c4ccc(Cl)cc4)CC3)cnc21	0	20
COc1cc(OC)cc(N2C(=O)c3ccccc3NC23CCN(C(=O)NCc2ccco2)CC3)c1	0	9
CCCCCOc1ccc(CO[C@@H]2[C@H]3OC(C)(C)O[C@H]3O[C@@H]2C(O)CO)cc1 (stereo partly specified)	0	-3
The list continues:
SMILES	NPYLR7 agonist	NPYLR7 agonist max-min
Cc1ccc(-c2nnc(CN3CCC4(CC3)OCC(C)O4)o2)cc1 (stereo unspecified)	0	23
COc1cc(NC(=O)CSc2ncnc3nc(N4CCCC(C)C4)sc23)cc(OC)c1OC (stereo unspecified)	-4	-4
Cc1cn2c(nc3c2c(=O)n(Cc2ccc(Br)cc2)c(=O)n3C)o1	-5	-4
CCN(Cc1cccs1)C(=O)CCc1nc2ccccc2c(=O)[nH]1	2	0
Cc1cc(CSc2nc(C)c(C)c(C)c2C#N)no1	0	6
CCn1c(SCC(=O)NCCSc2ccccc2)nc2ccccc2c1=O	12	2
Cc1nccn1CCN(C)c1nc(-c2ccc(Cl)cc2)nc2c1CNC2	22	14
O=C(NCCc1ccccc1)c1cc(NC(=O)C(c2ccccc2)c2ccccc2)ccc1N1CCC(Cc2ccccc2)CC1	-1	3
CCOC(=O)C1=C(C)NC(=O)NC1c1cn(-c2ccccc2)nc1-c1cccs1 (stereo unspecified)	-1	-7
CC1c2cc(F)ccc2OC1(O)C(=O)N1CCN(C(=O)c2ccco2)CC1 (stereo unspecified)	14	4
CN(Cc1ccc(Cl)cc1Cl)C(=O)c1ccc2c(c1)S(=O)(=O)N=C1CCCCCN12	0	14
COc1ccc(Cl)cc1NC(=O)CCC1CCCN(c2ncccc2C(N)=O)C1 (stereo unspecified)	18	5

This is a subset, so the mix of outcomes need not match the whole.
